CtBP-E1A inh – CtBP/E1A binding inhibition. AlphaScreen GST-E1A/His-CtBP binding, 1536-well; stronger effect = lower value; control for the full effect not named in the record. 340,000 compounds, 0.49% hits. activity change, % (concentration not given with the values); in the data active means activity change below about -65%; inconclusive means about -30% to -65%; inactive means above about -30%; also: % is scaled to controls: 0 for no effect and ±100 for the full control effect
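Steps: dispense buffer (Tris pH 8.0, NaCl 300 mM, TCEP 1 mM, BSA, Tween 20); add 5X protein mix (GST-E1A, His-CtBP, 125 nM each); pin 23 nL compound; 2 h at 37 °C, dark; add 5X beads (50 ug/mL); 1 h; read.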
gsp agonist – agonists of gsp mutant (McCune-Albright syndrome); gsp mutant cells, cAMP HTRF, 30 min; control for the full effect not named in the record; Potency, µM (titrated, usually from 76.9 µM), for the others: at the highest dose activation (cAMP increase), most hits filed as activators; 340,000 compounds, 0.13% hits; active = well fitted activation curve with a large enough effect; inconclusive = small, poorly fitted or top-dose-only effect, or another doubt; inactive = no such curve, though single readings can be large or run the other way; cell line not stated here;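 also: phosphodiesterase inhibitor Ro 20-1724 added with compounds to block cAMP breakdown; potency is read from the fitted curve at half-maximal effect; nearly all actives have a fitted effect of over 60% in size; about a fifth of the inactives were tested at one dose only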
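Cells in DMEM/10% FBS with G418 were pretreated with compounds in DMSO plus […] (300 uM stock) for 30 min at 37C. cAMP was measured by HTRF (cAMP-d2 plus anti-cAMP antibody-K) after 30 min at room temperature.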
Six1-Eya2 inh – Six1/Eya2 interaction inhibition; Q15475+O00167; AlphaScreen GST-Six1/His-Eya2 binding, biochemical; stronger effect = lower value; control for the full effect not named in the record; activity change, % (no concentration beside the values); 360,000 compounds, 0.56% hits; AID 651725; in the data active = activity change below about -65%; inconclusive = about -30% to -65%; inactive = above about -30%; also: % is scaled to controls: 0 for no effect and ±100 for the full control effect
Target sequence (O00167 whole entry, looked up): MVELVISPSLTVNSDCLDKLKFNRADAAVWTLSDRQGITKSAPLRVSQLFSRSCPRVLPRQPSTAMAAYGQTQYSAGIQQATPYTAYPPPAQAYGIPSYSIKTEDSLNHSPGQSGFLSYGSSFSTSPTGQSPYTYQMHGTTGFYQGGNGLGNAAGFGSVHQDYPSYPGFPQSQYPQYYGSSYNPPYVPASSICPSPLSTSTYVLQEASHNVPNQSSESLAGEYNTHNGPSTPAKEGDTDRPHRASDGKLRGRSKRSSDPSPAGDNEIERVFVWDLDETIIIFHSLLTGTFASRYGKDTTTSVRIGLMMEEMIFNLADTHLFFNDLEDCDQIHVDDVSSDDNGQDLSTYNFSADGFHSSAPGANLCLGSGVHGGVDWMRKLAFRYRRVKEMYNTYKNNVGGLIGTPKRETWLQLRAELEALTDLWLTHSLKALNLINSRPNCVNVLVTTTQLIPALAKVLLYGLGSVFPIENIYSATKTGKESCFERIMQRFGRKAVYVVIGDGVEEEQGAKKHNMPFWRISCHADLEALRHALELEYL
Target sequence (Q15475 whole entry, looked up): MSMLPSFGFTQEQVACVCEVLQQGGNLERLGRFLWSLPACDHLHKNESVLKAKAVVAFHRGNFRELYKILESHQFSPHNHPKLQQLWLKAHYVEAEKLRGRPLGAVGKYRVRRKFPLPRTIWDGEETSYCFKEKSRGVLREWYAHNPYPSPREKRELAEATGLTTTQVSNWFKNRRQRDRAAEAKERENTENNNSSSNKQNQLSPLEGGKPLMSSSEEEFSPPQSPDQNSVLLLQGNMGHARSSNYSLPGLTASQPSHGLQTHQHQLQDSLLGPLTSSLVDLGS
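AlphaScreen luminescence read after one hour at 37 °C in darkness. Pin-transferred compounds met GST-Six1 and His-Eya2 protein (5X stock 250 nM/500 nM) plus glutathione donor and Ni-chelate acceptor beads (5X, 50 ug/mL).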
D2 potentiator – potentiates the human D2 dopamine receptor allosterically | P14416 | DiscoveRx D2 beta-arrestin cells, luminescence, 90 min; 100% = 57 uM dopamine signal | potentiation, % (test concentration not listed) | 360,000 compounds, 0.23% hits | AID 624464; active = potentiation of 50% or more; inconclusive = 30% to 50%; inactive = 30% or less;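 also: compound concentration not given in the record; tested on top of an EC20 dose of dopamine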
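D2 cells co-treated with compound plus 50 nM dopamine (EC20) for 90 min at 37 deg C to detect potentiation. Beta-arrestin recruitment was read as enzyme-fragment luminescence after 1 h at ambient temperature. Full response was set by 57 uM dopamine.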
D2 agonist – human D2 receptor agonism in beta-arrestin assay; DiscoveRx PathHunter D2 beta-arrestin, luminescence, 90 min; 100% = 57 uM dopamine signal; activation, % (no concentration beside the values); 360,000 compounds, 0.084% hits; P14416; in the data active = activation above about 40%; inconclusive = about 15% to 40%; inactive = below about 15%; also: compound concentration not given in the record; the text of the record calls up to 30% inactive
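DiscoveRx PathHunter D2 beta-arrestin cells (2,100/well) attached overnight, then compound-stimulated 90 min at 37 C in HBSS/10 mM HEPES/0.1% Tween-20 buffer; beta-galactosidase complementation read by luminescence after 1 h at ambient temperature. Dopamine 57 uM final (EC100) as control.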
gsp antag – gsp mutant antagonism. gsp-mutant cells, cAMP HTRF, 30 min; control for the full effect not named in the record. Potency, µM (highest dose often 76.9 µM), for the others: top-dose activity change, negative = inhibition, most hits filed as inhibitors. 340,000 compounds, 0.4% hits. AID 624288; active = falling curve of any shape with a large fitted effect; inconclusive = falling curve, mostly with a smaller effect; inactive = flat or rising curve; cell line not stated here;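 also: intracellular cAMP measured with PDE inhibitor Ro 20-1724 present during compound exposure; potency is read from the fitted curve at half-maximal effect; % is scaled to controls: 0 for no effect and ±100 for the full control effect; nearly all actives have a fitted effect of over 65% in size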
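HTRF cAMP read-out (cAMP-d2 plus anti-cAMP antibody-K in lysis buffer, 30 min RT). Before lysis, cells are exposed to compounds with […] for 30 min at 37C in DPBS containing Ca/Mg, BSA and Tween 20.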
Active calls of the source: *; ? = inconclusive; . = no result given; [ ] = dose if it differs, or a comment.

No.	smiles	CtBP-E1A inh	gsp agonist	Six1-Eya2 inh	D2 potentiator	D2 agonist	gsp antag
1	CC(=O)NC(NC(=S)N1CCCCCC1)C(Cl)(Cl)Cl (stereo not given)	5	5%[15.4 µM]	1	-5	1.8	9%
2	O=C(CSc1nnc(-c2ccccc2Br)o1)N1CCN(C(=O)c2ccco2)CC1	8	-14%	-4	-13	0.7	0%
3	Clc1ccc2c(N/N=C/c3cccnc3)ccnc2c1	-19	-23%	-25	-13	2.4	-1%
4	CC(C)CC(=O)CC1(O)C(=O)Nc2ccccc21 (stereo not given)	5	12%	8	-3	-8.4	10%
5	CCOC(=O)CNC(=O)C1c2ccccc2Oc2ccccc21	2	-2%[15.4 µM]	0	-5	-5.1	8%
6	CS(=O)(=O)N1CCC(C(=O)Nc2ccc(F)cc2F)CC1	0	24%	5	-6	-2.8	11%
7	CCN(CC)CCNC(=O)Cn1cnc2sc(C)c(S(=O)(=O)N3CC(C)CC(C)C3)c2c1=O (stereo not given)	-8	-14%	5	-6	0.2	6%
8	Cc1ccc(C(=O)Oc2cc(N)n(S(=O)(=O)c3ccc(F)cc3)n2)cc1	-1	-3%[15.4 µM]	?	-10	-1.3	5%
9	CN(Cc1nc(CC2CC2)no1)CC12CC3CC(CC(C3)C1)C2	6	0%[15.4 µM]	12	-7	1.8	15%
10	COc1ccc(NC(=O)c2ccc3c(c2)CCN3S(=O)(=O)c2ccccc2)cc1	-3	34%	-3	-8	-0.7	-27%
11	COc1ccc(S(=O)(=O)N(C)c2ccc(C(=O)NCc3ccco3)cc2)cc1	0	-25%	-6	2	-6.2	-2%
12	COc1ccc(NC(=O)C2CCCN2S(=O)(=O)c2ccc3c(c2)CCC(=O)N3)cc1 (stereo not given)	-1	-25%	-3	2	1.0	-7%
13	COc1ccccc1CC(=O)NNC(=O)c1cccs1	1	?	20	12	0.5	9%
14	CC(C)OC(=O)CSc1nnc(Cc2ccccc2)n1CC1CCCO1 (stereo not given)	10	3%	8	-18	-2.3	21%
15	Cc1cc(C)c(OCCN2C(=O)NC(C)(C)C2=O)c(Cl)c1	6	-1%	6	-4	-1.5	-5%
16	O=C(OCCN1C(=O)c2ccccc2C1=O)Oc1ccccc1	.	18%	10	-9	-1.6	4%
17	COc1ccccc1C(=O)NCc1n[nH]c(=S)n1Cc1ccccc1	.	-123%[inhibitor]	-3	-7	-5.9	-2%
18	CCCOc1ccc(C2C3=C(Nc4nc(N)[nH]c(=O)c42)c2ccccc2C3=O)cc1 (stereo not given)	.	1%	?	-1	-6.3	9%
19	COc1ccccc1NC(=S)NNC(=O)c1c(Cl)c(C)nn1C	0	-20%	-3	-16	-5.6	?
20	O=C(CN(Cc1ccccc1)C(=O)CCC(=O)Nc1nccs1)NCC1CCCO1 (stereo not given)	?	-4%[15.4 µM]	16	0	0.2	9%
21	C#CCn1c(S(=O)(=O)Cc2ccccc2Cl)nc(-c2ccccc2)c1-c1ccccc1	0	27%	4	-4	1.2	1%
22	CN(C)NC1CCS(=O)(=O)C1 (stereo not given)	12	-41%[inhibitor]	1	-8	-0.2	1%
23	CCNc1nc(NCC)nc(C(=O)Nc2ccccc2)n1	?	23%	?	-26	-7.0	3%
24	CC(=O)NCCSc1ccc(S(=O)(=O)N2CCCC2)cn1	.	15%	3	6	-1.4	4%
25	Cc1nc2nc(SCC(=O)NCCN3CCOCC3)nn2c(C)c1Cc1ccccc1	-1	17%	0	-6	-3.3	-4%
26	Nc1nnc(CCS(=O)(=O)c2ccc(Cl)cc2)s1	6	-60%[inhibitor]	5	2	-0.3	-2%
27	O=C(O)[C@@H]1CCCN1C(=O)COc1ccc2c3c(c(=O)oc2c1)CCC3	-16	.	1	-34	-3.9	-1%
28	O=C(N/N=C/C1CC=CCC1)c1cc(-c2cccnc2)nc2ccccc12 (stereo not given)	-4	30%	4	0	-0.1	1%
29	Cc1nc2ccc(NC(=O)c3cccc(C(F)(F)F)c3)cc2o1	2	-46%[inhibitor]	-2	-9	3.1	-7%
30	CCCCCc1cc(=O)oc2c(C(CCN(CC)CC)c3cc(OC)c(OC)c(OC)c3)c(OC)cc(OC)c12 (stereo not given)	-9	.	-10	-31	-2.4	7%
31	COc1ccc(-n2nc(C(=O)NCC(=O)N3CCC(C)CC3)c3ccccc3c2=O)c(OC)c1	0	-8%[15.4 µM]	-17	-11	-5.1	6%
32	CC(C)(C)c1ccc(-c2nnc(NC(=O)c3ccccc3)s2)cc1	8	0%	3	-15	-1.6	8%
33	CN(C)c1ccc(C(C(=O)NC2CCCC2)N(C(=O)c2ccco2)C2CC2)cc1 (stereo not given)	0	-1%[15.4 µM]	1	-9	-2.9	-7%
34	C/C(=C\c1ccccc1)C(=O)NC1CCSC1=O (stereo not given)	8	8%	5	-14	-2.3	6%
35	CCc1nc(SCc2cc(Cl)ccc2OC)n[nH]1	-2	0%	-1	-12	-0.4	5%
36	C=CCOc1ccc(/C=N/n2nnnc2N)cc1OC	0	11%	17	-2	-1.0	-19%
37	O=C1Nc2ccc([N+](=O)[O-])cc2C1(O)N1CCCCC1 (stereo not given)	-8	-23%	2	-18	-1.6	-1%
38	COc1ccc(Br)cc1CNC(=O)C1CCCN(S(=O)(=O)N2CCC(C)CC2)C1 (stereo not given)	1	-27%	0	-12	-2.7	.
39	Cc1cc([N+](=O)[O-])nn1CC(=O)NC(C)c1ccccc1 (stereo not given)	1	15%[15.4 µM]	5	-9	-0.7	-9%
40	c1ccc(OCCSc2nnc3sc4ccccc4n23)cc1	3	?	-13	-19	-3.5	-9%
41	COc1cccc(CNC(=O)C2CCC(CNc3c(N4CCC(C)CC4)c(=O)c3=O)CC2)c1 (stereo not given)	-16	-11%[15.4 µM]	-14	-2	-2.7	1%
42	Cc1ccc(-c2nc3ccccc3o2)cc1NC(=S)NC(=O)c1cccs1	14	-6%	-1	2	1.6	9%
43	CCOc1ncccc1C(=O)OCC(=O)Nc1ccc(Cl)cn1	3	-7%	17	-8	1.4	6%
44	Fc1ccc(-n2c(-c3cc(C4CC4)[nH]n3)n[nH]c2=S)cc1Cl	5	3%[15.4 µM]	-7	-19	5.1	1%
45	CCOc1ccc(N2CC(C(=O)NCCC3=CCCCC3)CC2=O)cc1 (stereo not given)	12	23%	-1	-12	-1.0	-8%
46	COc1ccc(Br)cc1CNC(=O)c1ccc2c(c1)N(C)CCS2	-24	-94%[inhibitor]	-19	-5	-1.0	-5%
47	Cc1ccc(Cl)cc1-c1cc(C(=O)N2CCc3ccccc3C2)[nH]n1	2	.	-7	-7	-4.5	.
48	CC1(C(=O)NS(=O)(=O)Cc2ccccc2C(F)(F)F)CCN1C(=O)Cc1cccs1 (stereo not given)	9	.	9	-3	-5.2	.
49	CCN(CC1CCCO1)C(=O)CCc1nnc(CCc2ccccc2OC)o1 (stereo not given)	8	-20%	4	7	-1.9	10%
50	Cn1cnnc1SC1c2cccc3cccc(c23)C1NS(=O)(=O)c1ccc(Cl)cc1 (stereo not given)	1	-1%	1	11	1.3	?
51	Nc1sc2c(c1C(=O)NC1CCS(=O)(=O)C1)CCCC2 (stereo not given)	1	-28%	-1	-2	-0.7	4%
52	CC(=O)c1ccc(Sc2nnc(C)s2)c([N+](=O)[O-])c1	.	-26%	11	-5	0.4	-20%
53	Cc1ccc(NC(=O)c2ccc(Cl)c(N3C(=O)CCC3=O)c2)cc1	2	-7%	-10	1	6.0	-1%
54	Cc1ccccc1OCC(=O)Nc1sc2c(c1C#N)CCC2	9	-6%	1	1	4.0	-4%
55	O=C(NCC(c1ccco1)N1CCc2ccccc2C1)c1cccc(Br)c1 (stereo not given)	0	5%[15.4 µM]	-6	-24	-0.2	-26%
56	O=C1NCCCN1Cc1ccc(F)cc1	6	2%	3	-10	-1.4	2%
57	O=C(NCC(=O)N1CCN(C(c2ccccc2)c2ccccc2)CC1)c1ccccc1F	-11	-3%	-12	-3	-1.5	-12%
58	O=C(CCNc1ccc(Br)cc1)c1cccc([N+](=O)[O-])c1	?	-1%[15.4 µM]	?	-18	0.3	-9%
59	CCN1CCN(C(=O)/C=C/c2ccc(F)cc2)CC1	5	2%[15.4 µM]	-6	-24	0.9	4%
60	CC(C)[C@@H](N)C(=O)NC[C@H]1O[C@@H](n2cnc3c(=O)[nH]c(N)nc32)[C@H](O)[C@@H]1O	0	.	0	1	-3.4	.

Next records follow.
No.	smiles	CtBP-E1A inh	gsp agonist	Six1-Eya2 inh	D2 potentiator	D2 agonist	gsp antag
61	O=C(Nc1nc2ccc(Cl)cc2s1)c1ccc(N2CCCCC2)c([N+](=O)[O-])c1	-8	-15%	1	-26	0.2	-1%
62	COC(=O)[C@]1(Cc2ccccc2)N[C@H](CN(C)C(=O)Nc2ccc(C(F)(F)F)cc2)[C@@H]2C(=O)N(C)C(=O)[C@@H]21	1	.	3	.	-2.6	1%
63	CCOC(=O)c1c(NC(=O)CSc2nc3cc(Cl)ccc3c(=O)n2Cc2ccco2)sc(C(=O)N(C)C)c1C	9	-2%[15.4 µM]	-12	-5	3.6	-19%
64	O=S(=O)(c1cccs1)n1cccn1	3	3%	2	0	-3.6	4%
65	CCOc1cc(C=C(C(=O)OC)C(=O)OC)ccc1OCc1ccc([N+](=O)[O-])cc1	-10	15%	-1	-31	-1.4	-1%
66	COc1ccc(/C=C(/NC(=O)c2cccc([N+](=O)[O-])c2)C(=O)O)cc1OC	-8	-9%	-1	-4	4.1	4%
67	COc1cc(Cl)ccc1OCc1cc(C(=O)NCc2cc(C(C)C)no2)no1	1	-61%[inhibitor]	-3	-12	-5.3	-7%
68	c1ccc(CN=C2CCCc3ccccc3N2)cc1	-4	?	-7	-24	-3.9	.
69	CCOC(=O)Cn1c(=O)n(Cc2ccco2)c(=O)c2ccc(C(=O)NCCc3ccccc3)cc21	6	?	-8	0	-1.8	-20%
70	CCN(Cc1ccccc1)C(=O)c1cccnc1	8	-9%	21	-1	-1.9	10%
71	Cc1c(CN(C)C)c2c(n1Cc1ccccc1)C(=O)c1ccc(Br)cc1-2	?	5%	-65*	-18	-7.0	6%
72	NNC(=O)c1ccccc1OCCOc1ccccc1	7	-14%	7	-3	1.2	10%

Compound activity: PubChem BioAssay, National Center for Advancing Translational Sciences (NCATS)
